Screening data: PubChem BioAssay, National Center for Advancing Translational Sciences (NCATS)
miR-21 reporter: qHTS Assay for Modulators of miRNAs and/orActivators of miR-21 | 340,000 tested, under 10 active | AID 2288, 2010 | Potency, µM (top dose mostly 38.3 µM), without a hit: at the highest dose reporter change, positive = more light | HeLa miR-21 FLuc reporter, luciferase, 48 h; active = well fitted rising curve with a large enough effect; inconclusive = small, poorly fitted or top-dose-only effect; inactive = no such curve, though single readings can be large or run the other way;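 further: % of control where 0% means no effect; miR-21 action dims this reporter so a rising signal means less miR-21 action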
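Compounds were titrated across several concentrations (up to approximately 40 uM) and incubated 48 hours with HeLa miR-21-FLuc reporter cells (miR-21 target sequence downstream of FLuc, endogenous miR-21). Readout was firefly luciferase luminescence after lytic detection reagent.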
Rango release inh: qHTS Assay for Inhibitors of RanGTP induced Rango (Ran-regulated importin-beta cargo) - Importin beta complex dissociation; Biochemical FRET Rango-importin beta, RanGTP-induced dissociation; 340,000 compounds, 0.071% hits; Potency, µM (doses to about 46.1 µM), for the others: top-dose activity change, negative = inhibition; AID 540253, 2011; active means falling FRET ratio curve, often poorly fitted, with flat reads before Ran was added; inconclusive means other falling curves, or compound fluorescence or quenching; inactive means flat or rising ratio curve;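 further: potency means the concentration at half of the fitted maximal effect; % of control where 0% means no effect; nearly all actives have a fitted effect of over 45% in size; -100% = wells without RanGTP and RCC1; the record marks most hits as doubtful in a second field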
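Compounds sat 5 min at room temperature with 0.1 uM Rango biosensor plus 0.25 uM importin beta, then FRET pre-read. RanGTP-RCC1 (0.6 uM Ran, 2mM GTP, 0.2 uM RCC1) added for 45 min, and the CFP/YFP post-read measured blocked complex dissociation.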
GLA inh pH 4.5: qHTS Assay for Inhibitors of Human alpha-Galactosidase at pH 4.5; activity change, negative = inhibition, % at 105 µM; purified enzyme, 4-MU-alpha-Gal fluorescence, pH 4.5; Alpha-galactosidase A (Homo sapiens), P06280; 230,000 tested, under 10 active; inconclusive = small, poorly fitted or top-dose-only inhibition, or a rising curve; inactive = flat fitted curve, though single readings scatter; no compound was filed as active;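 further: 0% = full activity with enzyme and -100% = basal without enzyme; dose as in the result columns while the protocol names 77 µM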
Target sequence (P06280 whole entry, looked up): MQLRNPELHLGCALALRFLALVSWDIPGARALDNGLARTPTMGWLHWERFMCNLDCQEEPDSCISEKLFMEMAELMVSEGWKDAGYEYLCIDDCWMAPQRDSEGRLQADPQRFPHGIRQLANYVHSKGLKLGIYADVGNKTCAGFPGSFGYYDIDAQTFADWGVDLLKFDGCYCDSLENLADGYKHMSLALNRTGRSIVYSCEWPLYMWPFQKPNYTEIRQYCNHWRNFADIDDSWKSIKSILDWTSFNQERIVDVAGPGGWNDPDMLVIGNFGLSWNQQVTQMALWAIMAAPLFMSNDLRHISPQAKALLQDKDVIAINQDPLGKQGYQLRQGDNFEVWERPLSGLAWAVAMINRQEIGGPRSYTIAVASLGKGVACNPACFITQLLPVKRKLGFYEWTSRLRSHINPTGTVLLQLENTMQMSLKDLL
Rango-impB inh: qHTS Assay for Inhibitors of Rango (Ran-regulated importin-beta cargo) - Importin beta complex formation; Importin subunit beta-1 (Homo sapiens), Q14974; Rango CFP/YFP FRET sensor + importin beta, 45 min; Potency, µM (highest dose often 92.2 µM), for the others: at the top dose inhibition of complex formation; 340,000 compounds, 0.031% hits; AID 540263, 2011; active = rising FRET ratio curve, often small or poorly fitted; inconclusive = mostly compound fluorescence or quenching in the first reads; inactive = flat curves in all reads;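 further: potency means the concentration at half of the fitted maximal effect; 0% = DMSO wells and 100% = buffer wells lacking importin beta; nearly all actives have a fitted effect of over 15% in size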
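FRET biosensor (snurportin 1 IBB flanked by EYFP and cerulean), 50 nM, with compound 5 min, then 0.125 microM importin beta in PBS, 1 mM DTT, 0.02% Tween-20, 0.1% BSA. CFP/YFP ratio read after 45 min at room temperature; pre-read flags interference.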
* = called active by the depositor; ? = inconclusive; nt = not tested or not shown.

SMILES	miR-21 reporter	Rango release inh	GLA inh pH 4.5	Rango-impB inh
CC[C@]12c3[nH]c4ccc(Cl)cc4c3CCN1C(=O)[C@@H](CC(=O)NCCN1CCOCC1)C[C@@H]2C(=O)N1CCN(C(=O)c2ccco2)CC1	nt	-1%	nt	-3.7%
COc1ccc(N(C(C)C(=O)NCc2ccco2)S(C)(=O)=O)cc1 (stereo not given)	-6%	?	1	3.1%
Cc1ccc(NC(=O)CCC(=O)NNC(=S)Nc2ccc(F)cc2F)cc1C	-2%	-15%	nt	3.8%
CC(C)NC(=O)CC1C(=O)N(Cc2ccccc2)C(C)c2nc3ccccc3n21 (stereo not given)	-1%	8%	-4	-3.0%
COc1ccc(Cn2c(/C=C/c3ccccc3)nc3ccccc32)cc1	-53%	-11%	-12	-2.8%
O=C(COC(=O)CCc1ccccc1)NCc1ccc2c(c1)OCO2	nt	-13%	nt	-0.1%
CCn1nc(NC(=O)c2ccccn2)c2cc3cccc(C)c3nc21	0%	?	6	?
COc1ccc(/C=N/NC(=O)CC(=O)N/N=C/c2ccc(OC)cc2)cc1	-1%	1%	1	0.9%
CCn1c(SCC(=O)NC2CCCCC2)nc2c(c1=O)SC(C)C2 (stereo not given)	-1%	2%	1	4.5%
N#CCCn1c2ccccc2c2nc3ccccc3nc21	-36%	?	2	-3.2%
Cc1ccc(CNC(=O)CSc2nc(C)cc(C)c2C#N)cc1	-17%	6%	-3	-0.7%
COc1ccc(OC)c(S(=O)(=O)N(C)CC(=O)N2CCc3ccccc3C2)c1	-10%	-7%	1	0.5%
O=C(N/N=C/c1ccc2c(c1)OCO2)C(=O)Nc1ccccc1	-3%	-5%	1	0.3%
Oc1ccccc1CN1CCCC(N2CCN(c3cccc(C(F)(F)F)c3)CC2)C1 (stereo not given)	7%	-14%	nt	-1.5%
N#Cc1c(SCC(=O)N2CCCCC2)nsc1SCC(=O)N1CCCCC1	2%	2%	-4	-3.2%
CCc1ccccc1N(CC(=O)N1CCCCCC1)S(C)(=O)=O	1%	4%	nt	0.9%
COc1cc(C)c(C(C)C)cc1S(=O)(=O)NCCCn1ccnc1	-6%	0%	-5	3.3%
O=C(OCCCN1CCCC1)C1(c2ccccc2)CCCC1	-6%	5%	1	-1.8%
C/C(=N\NC(=O)c1nnn(-c2nonc2N)c1CSc1ccccc1)c1ccco1	-1%	1%	nt	-0.3%
COC(=O)c1ccc(C(=O)OC)c(NC(=O)CSc2nnc(-c3ccccc3Cl)o2)c1	nt	4%	nt	-0.2%
O=C(O)CNC(=O)/C(=C/c1cccc([N+](=O)[O-])c1)NC(=O)c1ccco1	1%	?	-5	?
CCc1ccc(S(=O)(=O)Nc2cccc(-c3ccc4nnc(C)n4n3)c2)s1	nt	-10%	nt	-0.2%
CCOc1cccc(C2/C(=C(/O)c3ccc4c(c3)CC(C)O4)C(=O)C(=O)N2Cc2ccncc2)c1 (stereo not given)	0%	-6%	nt	0.2%
COc1ccccc1-c1n[nH]c(=S)n1Cc1ccco1	1%	nt	3	nt
O=C(c1cc(Cl)ccc1F)N1CCCC(Nc2ccc3c(c2)OCCO3)C1 (stereo not given)	4%	-7%	nt	0.2%
Cc1cc(C)n(-c2ccc(C(=O)Nc3cccnc3)cc2)n1	4%	10%	-7	5.0%
O=C(Nc1cccc(S(=O)(=O)N2CCCCC2)c1)C1CC1	nt	-8%	nt	0.0%
Cc1ccc2[nH]c(C(=O)O)c(NC(=O)[C@@H]3C[C@@H]3c3ccccc3)c2c1	0%	21%	-2	1.2%
N#CCCN(C(=O)Nc1ccc(Cl)c(Cl)c1)c1ccccc1	-17%	12%	8	3.2%
O=C(NCc1ccc2c(c1)OCO2)Nc1ccc(F)cc1	-49%	-11%	nt	0.4%
COC(=O)c1sccc1NC(=O)Nc1cc(OC)ccc1OC	1%	14%	nt	2.4%
CCn1c(SCc2cccc(C(=O)O)c2)nnc1-c1ccccc1	-17%	5%	-1	2.1%
CC1CCCN(S(=O)(=O)c2cc(Cl)ccc2Cl)C1 (stereo not given)	0%	4%	-2	-0.1%
COc1ccccc1N1CCN(Cc2cc(=O)c(OCC#N)co2)CC1	2%	-3%	nt	-0.7%
C=CCn1c(-c2ccccc2[N+](=O)[O-])n[nH]c1=S	-1%	-4%	3	1.2%
O=C(COC(=O)c1cc(Br)ccc1Cl)NC1CC1	-1%	-1%	17	?
COCC(C)NC(=O)c1ccccc1OC(C)=O (stereo not given)	-4%	8%	0	0.6%
COC(=O)c1c[nH]c2c1-c1cc(C(=O)OCc3ccccc3)n(S(=O)(=O)c3ccc(C)cc3)c1C(=O)C2=O	nt	-5%	nt	3.8%
COc1ccc(-n2c(SC(CN3CCCCC3)CN3CCCC3=O)nc3ccccc3c2=O)cc1 (stereo not given)	-7%	-22%	-20	0.6%
COCCNC(=O)CN(C(=O)CCC(=O)Nc1ccccn1)c1ccc(C)c(C)c1	2%	-6%	nt	-8.1%

Two entries picked at random from the list so far, as already listed:
SMILES	miR-21 reporter	Rango release inh	GLA inh pH 4.5	Rango-impB inh
O=C(COC(=O)c1cc(Br)ccc1Cl)NC1CC1	-1%	-1%	17	?
COc1ccccc1N1CCN(Cc2cc(=O)c(OCC#N)co2)CC1	2%	-3%	nt	-0.7%

The listing continues.
SMILES	miR-21 reporter	Rango release inh	GLA inh pH 4.5	Rango-impB inh
CCOc1ccc(NC(=O)CN2CCN(CC(=O)Nc3ccc(F)c(F)c3)CC2)cc1	2%	12%	-20	3.6%
Cc1ccc(S(=O)(=O)N2CCN(C(=O)c3cccs3)CC2)cc1	-2%	-2%	2	-1.8%
CC1CCCN(c2ccc(C(=O)NCC3CCCO3)cn2)C1 (stereo not given)	-52%	-1%	-2	-3.5%
CCN1C(=Nc2ccc(Cl)cc2)SC/C1=C\C(=O)OC	-18%	18%	6	-1.0%
O=C(Cn1ccc2ccccc2c1=O)NCCC(=O)Nc1cccnc1	0%	1%	0	-3.0%
O=C(c1ccccc1)N(c1ccccc1)c1nccc2ccccc12	nt	-18%	nt	-0.2%
O=C(CSc1ccc2nnc(-c3ccc(F)cc3)n2n1)NCc1ccco1	-13%	2%	10	0.3%
Cc1ccc(C)n1-c1ccsc1C(=O)CC#N	-1%	2%	6	?
COC(=O)/N=C/c1c(NCc2ccccc2)nc2c(C)cccn2c1=O	-23%	10%	-1	-4.7%
Cc1cccc(C(=O)N2CCN(c3ccccn3)CC2)c1	-2%	-2%	-8	-2.2%
COc1ccccc1Cn1c(=S)[nH]c2cc(C(=O)NCCN3CCOCC3)ccc2c1=O	-1%	-5%	4	2.4%
CC(NS(=O)(=O)c1ccc(F)cc1)C(c1cccs1)N1CCN(C)CC1 (stereo not given)	-6%	-8%	-3	-4.1%
Cc1ccc(-n2c(O)c(C=Nc3ccccc3-c3n[nH]c(=S)[nH]c3=O)c3ccccc3c2=O)c(C)c1	5%	-23%	-13	?
CCc1ccc(OCCSc2nc3ccccc3n2CCC(=O)O)cc1	-10%	-5%	nt	1.2%
Cc1ccc2cc3c(NC(=O)C(C)C)nn(C)c3nc2c1	-4%	?	3	?
Cc1ccccc1OCC1CNC(=O)O1 (stereo not given)	-2%	-8%	1	1.4%
CCn1c(SCC(=O)NC2=NCCS2)nnc1C(C)NC(=O)c1ccccc1F (stereo not given)	0%	8%	nt	2.0%
CC1CC(C)CN(c2ncnc3c2cnn3C)C1 (stereo not given)	-14%	-15%	2	-0.8%
O=C(COc1cccc2cccnc12)N/N=C/c1ccccc1O	0%	-2%	-4	-3.2%
COc1ccc(C2OC(=O)CC2C(=O)N2CCN(c3cc(Cl)ccc3C)CC2)cc1OC (stereo not given)	0%	1%	-2	0.1%
Cc1ccc(CC2CC(=O)N(CCc3ccccc3)C2=O)cc1 (stereo not given)	-27%	10%	-9	9.9%
COc1ccc(OC)c(NC(=O)Nc2cccnc2)c1	3%	-1%	nt	-6.6%
O=S1(=O)NC2CCCCCN2c2ccc(F)cc21 (stereo not given)	-2%	-12%	8	-2.0%
CC(C)(C)CC(=O)N1CCC(c2nc3c(nnn3Cc3c(F)cccc3Cl)c(=O)[nH]2)CC1	9%	-21%	-8	-5.1%
Cn1c(=O)c2c(nc(OC/C=C/c3ccccc3)n2C)n(C)c1=O	nt	4%	nt	-1.9%
CC(OC(=O)c1oc2ccccc2c1COc1ccccc1)C(=O)NC(N)=O (stereo not given)	-2%	2%	14	-0.6%
Cc1cccc2cc(C#N)c(NCc3ccccc3)nc12	4%	?	3	?
C=CCc1ccccc1OCC(O)CN(CC)CC (stereo not given)	-8%	0%	-4	3.4%
CCSC1=N/C(=C\c2ccccc2)C(=O)N1c1ccc(OC)cc1	1%	-5%	1	0.2%
O=C(NN=Cc1cccc2ccccc12)C(=O)NN=Cc1cccc2ccccc12	nt	9%	nt	7.9%

Single records, from the list above.
O=C(NN=Cc1cccc2ccccc12)C(=O)NN=Cc1cccc2ccccc12 as listed: miR-21 reporter = nt; Rango release inh = 9%; GLA inh pH 4.5 = nt; Rango-impB inh = 7.9%
Cn1c(=O)c2c(nc(OC/C=C/c3ccccc3)n2C)n(C)c1=O as listed: miR-21 reporter = nt; Rango release inh = 4%; GLA inh pH 4.5 = nt; Rango-impB inh = -1.9%

(listing goes on)
SMILES	miR-21 reporter	Rango release inh	GLA inh pH 4.5	Rango-impB inh
O=C(c1cccc(F)c1)N1CCCc2ccccc21	0%	3%	nt	5.4%
CN(C(=O)COC(=O)c1cc(S(=O)(=O)N2CCCCC2)ccc1Cl)c1ccccc1	nt	0%	nt	-0.9%
COc1cc(OC)cc(C(=O)NCCNC(=O)c2ccccc2)c1	-5%	7%	-25	-0.4%
CN1C(=O)NC(c2cccc([N+](=O)[O-])c2)C2=C1CCCC2=O (stereo not given)	-3%	1%	nt	2.0%
CC1CN(C(=O)C(C)OC(=O)c2ccc3ncsc3c2)CC(C)O1 (stereo not given)	nt	13%	nt	0.3%
Cc1cccc(C)c1N(CC(=O)N1CCN(c2ccccc2F)CC1)S(C)(=O)=O	1%	6%	1	-0.7%
CCOC(=O)C1CCN(c2nnc(N3CCCC3=O)s2)CC1	-18%	0%	0	-0.9%
Cc1cc(C(=O)N2CCCC(C(=O)c3ccc(Cl)cc3C)C2)no1 (stereo not given)	10%	0%	nt	1.3%
COCCNS(=O)(=O)c1cc(-c2nn(C)c(=O)c3ccccc23)ccc1C	-16%	0%	6	-0.4%
O=C(NCc1ccc(Cl)cc1)C1CCC(CNc2c(N3CCCCC3)c(=O)c2=O)CC1 (stereo not given)	-11%	18%	7	0.3%
CC(C)(C)OC(=O)NCC12C=CC(O1)C1C(=O)N(Cc3ccccc3)C(=O)C12 (stereo not given)	11%	3%	-13	3.1%
Cc1ccc(NC(=O)c2ccc(-c3nn(C)c(=O)c4ccccc34)cc2)c(C)c1	-5%	-7%	-1	5.8%

Another view of 3 compounds above:
SMILES | miR-21 reporter | Rango release inh | GLA inh pH 4.5 | Rango-impB inh
C=CCn1c(-c2ccccc2[N+](=O)[O-])n[nH]c1=S | -1% | -4% | 3 | 1.2%
O=C(COC(=O)c1cc(Br)ccc1Cl)NC1CC1 | -1% | -1% | 17 | ?
COCC(C)NC(=O)c1ccccc1OC(C)=O (stereo not given) | -4% | 8% | 0 | 0.6%

An excerpt (hit frequency here may not be typical).
